YjeE inh: qHTS Assay for Inhibitors of YjeE | tRNA threonylcarbamoyladenosine biosynthesis protein TsaE (Escherichia coli (strain … | purified YjeE, fluorescence polarisation of a bound ADP probe | Potency, µM | hit rate 0.05% among 71,000; active = well fitted falling curve; inconclusive = weaker or top-dose-only fall, or a rising curve; inactive = flat or poorly fitted curve;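 also: top concentration of the series not given in the record; excess ADP was the control for the full effect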
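Purified YjeE (10 uM) with BODIPY Texas Red-labeled ADP probe (2 uM); compounds pin-transferred, 15 min at room temperature. Binding inhibition read as decreased fluorescence polarization; ADP titration as control.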
Bst PK mod: Pyruvate Kinase; partly purified Bacillus stearothermophilus pyruvate kinase, luminescence ATP production; ribose 5-phosphate activator present at AC10; Potency, µM; hit rate 1.2% among 51,000; AID 361, 2006; in the data active means potency below about 11 µM; inconclusive means mostly about 12 µM to 25 µM; inactive means weaker than that;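 the screen sought inhibitors and activators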;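 also: potency is read from the fitted curve at half-maximal effect; scaled between full activation by ribose 5 phosphate and full inhibition by luteolin; about four in five hits inhibit and the cells do not say which; series up to 57 µM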
Numbers without * were called inactive; i = inactive; ? = inconclusive; . = not tested or not shown.

compound	YjeE inh	Bst PK mod
CC(=O)n1nc(-c2cccnc2)nc1N	i	>57
O=C(Nc1ccc(NC(=O)c2ccco2)nc1)c1ccccn1	i	.
COc1ccc(Nc2nc(N)nc(CSc3n[nH]c(-c4ccccc4)n3)n2)cc1	i	.
O=C(COc1cc(Cl)ccc1Cl)Nc1nnc(CC(=O)N2CCOCC2)s1	i	>57
COc1ccc2cc([C@H](C)C(=O)O)ccc2c1	i	>26
CCn1c(SCC(=O)N2CCN(c3ccc(F)cc3)CC2)nnc1-c1ccncc1	i	>57
COC(=O)CSc1nc2c(c(=O)n(C)c(=O)n2C)n1CCCc1ccccc1	i	>57
COc1ccc(S(=O)(=O)Nc2cc(OC)c(NC(=O)c3ccco3)cc2OC)cc1	i	>57
FC(F)(F)c1nc(SCc2ccc(Cl)cc2)n[nH]1	i	.
O=C(CN1C(=O)c2ccccc2S1(=O)=O)N1CCN(c2ccccc2F)CC1	i	>57
COC(=O)C1CCN(C(=O)NC2CCCCC2)CC1	i	>57
O=C(Nc1ccc2c(c1)OCCO2)c1c(F)cccc1F	i	.
COc1ccc(-c2noc(CCC(=O)Nc3cc(Cl)c(OC)cc3OC)n2)cc1	i	>57
COc1ccc(Cl)cc1S(=O)(=O)N1CCN(C)CC1	i	.
N#CCCSCc1ccc(C(=O)O)o1	i	>57
Cc1csc(SCC(=O)N2CCCC2)n1	i	>57
O=C1C2CCCN2C(c2ccccc2)N1c1ccc(Cl)cc1 (centres undefined)	i	>57
COC(=O)[C@@]1(Cc2ccccc2)[C@H]2c3cc(C(=O)N(C)C)n(CCO)c3C[C@H]2CN1C(=O)c1ccccc1	i	.
O=C1Nc2cccnc2Sc2ccccc21	i	>57
COc1cc(OC)nc(NC(=O)COC(=O)C2CCCCC2)n1	i	>57
CCOC(=O)C1=C(C)NC(=O)NC1/C(C)=C/c1ccccc1 (centres undefined)	i	.
Cc1nc2nc[nH]n2c(=O)c1NC(=O)c1c(-c2ccccc2Cl)noc1C	i	>57
COc1ccc(S(=O)(=O)N2CCCN(CC(=O)Nc3cc(NC(C)=O)ccc3OC)CC2)cc1	i	>57
O=C(NCc1ccccn1)c1cc2ccccn2n1	i	.
CC(C)c1nc(N2CCCC2)c(C#N)c2c1CCCC2	i	>57
NC(=O)CC(O)c1cccc(Cl)c1 (centres undefined)	i	>57
CCOC(=O)N1CCN(C(=O)NC23CC4CC(CC(C4)C2)C3)CC1	i	.
CC(C)(C)n1ncc2c(=O)n(CC(=O)OCc3ccccc3)cnc21	i	0.54*
CCC(=O)Nc1ccc(NC(=O)c2ccco2)c(OC)c1	i	.
Cn1cccc1C(=O)N1CCC2(CCN(Cc3nccs3)CC2)CC1	i	.
O=C(CCN1C(=O)c2ccccc2C1=O)N1CCN(c2ccccn2)CC1	i	>57
O=C(OCCN(C1=NS(=O)(=O)c2ccccc21)c1ccc(Cl)cc1)c1ccco1	i	.
Cc1nc(NC2=NCN(Cc3cccnc3)CN2)nc2ccccc12	i	>57
O=C(c1ccco1)N1CCCC(c2nc(-c3ccc(S(=O)(=O)NCc4ccccc4)cc3)no2)C1 (centres undefined)	i	>57
CCCCCn1c(CN2CCN(Cc3ccccc3)CC2)nc2c1c(=O)[nH]c(=O)n2C	i	>57
N#Cc1ccc(-c2ccco2)nc1SCc1ccccc1	i	>57
COc1ccc(OC)c(C2CC(=O)N3CN(c4ccc(C)c(Cl)c4)CSC3=C2C#N)c1 (centres undefined)	i	.
COC(=O)c1cn(C)c2ccc(S(=O)(=O)N3CC(C)CC(C)C3)cc2c1=O (centres undefined)	i	>57
Cc1ccccc1-n1c(=O)cc(N2CCCCCC2)[nH]c1=O	i	.
Cc1noc(COc2ccccc2OCC(N)=O)c1Cl	i	>57
CC1(c2ccccc2)NC(=O)N(CC(=O)N2CCOCC2)C1=O (centres undefined)	i	>57
CC12CN(C(=O)c3ccco3)CC(c3ccccc3)(CN(C(=O)c3ccco3)C1)C2=O	i	>57
CCOC(=O)c1cc2occc2n1CCCN1C(=O)c2ccccc2C1=O	i	>57
CCOC(=O)N1CCN(S(=O)(=O)c2ccc(C(=O)Nc3ccc(F)cc3F)cc2)CC1	i	>57
COCCn1c(C)cc(C(=O)COC(=O)c2ccc3ncsc3c2)c1C	i	.
O=C(c1ccc(C(=O)N2CCOCC2)nc1)N1CCOCC1	i	>57
Cn1c(Cl)cnc1C(O)c1ccccc1 (centres undefined)	i	>57
CC1Cc2ccccc2N1C(=O)CN1C(=O)CN(C)C(=O)c2ccccc21 (centres undefined)	i	>57
COCC(=O)Nc1nnc(SCC(=O)NCc2cccs2)s1	i	>57
C=CCc1ccccc1OCC(O)CN1CCN(Cc2ccc3c(c2)OCO3)CC1 (centres undefined)	i	>57

The listing continues:
compound	YjeE inh	Bst PK mod
Cc1ccccc1OCc1nc(-c2ccccc2)no1	i	.
O=C(c1ccc2nc(-c3ccco3)c(-c3ccco3)nc2c1)N1CCN(c2ccccc2)CC1	i	>57
Cc1cc(C)n2c(SCC(=O)N3CCN(S(=O)(=O)c4ccc(Cl)cc4)CC3)nnc2n1	i	>57
CC1=C2C(=O)OC(c3ccoc3)C2(C)CCC1 (centres undefined)	i	>57
O=C(NCCCn1ccnc1)c1cn(-c2ccccc2)nc1-c1ccc(F)cc1	i	i
O=C(CCN1C(=O)c2ccccc2C1=O)N1CCN(Cc2ccc(Cl)cc2Cl)CC1	i	.
O=C(CN1C(=O)COc2ccccc21)NCCN1CCc2ccccc2C1	i	>57
O=C(Cn1nc(Cc2cccnc2)c2ccccc2c1=O)Nc1ccc2c(c1)OCO2	i	.
O=C(NCCc1ccc(Cl)cc1)C1CCN(C(=O)c2sccc2-n2cccc2)CC1	i	>57
Cn1c(=O)oc2cc(S(=O)(=O)N3CCCC(C(=O)NCC4COc5ccccc5O4)C3)ccc21 (centres undefined)	i	.
CC(=O)Nc1nc(-c2cccs2)cs1	i	.
CCN(CC)S(=O)(=O)c1cccc(-c2nc3n(n2)Cc2ccccc2-3)c1	i	>57
CCCCOc1ccc(-c2nnc(-c3ccco3)o2)cc1	i	i
COc1ccc(NC(=O)CSc2nc(-c3ccncc3)nn2CC(=O)N2CCCC2)cc1	i	>57
Cc1ccccc1NC(=O)Cc1nc(CSc2nnc(C3CCCCC3)n2N)cs1	i	>57
CCCN(CCC)CCCNS(=O)(=O)c1cc(Br)cc2c1N(C(C)=O)CC2	i	>57
CC[C@H](C)[C@H](NS(=O)(=O)c1ccc(C)cc1)C(=O)N1CCC(C(=O)N[C@@H](C)C(=O)O)CC1	i	>57
Cc1ccc(-n2c(=O)[nH]cc(C(=O)Nc3ccc4c(c3)OCO4)c2=O)cc1C	i	.
CCC(=O)N/C=C/n1cnc2cc(C(F)(F)F)ccc21	i	>57
COc1cc(C2N3CC4(C)CN2CC(C)(C3)C4)ccc1O (centres undefined)	i	>57
O=c1cnc2cnc(N3CCOCC3)nc2n1Cc1cccs1	i	.
CCC1(C)Cc2c(sc3c2c2ncnn2c2nnc(SCC(=O)NCc4ccco4)n32)CO1 (centres undefined)	i	>57
CCOC(=O)c1nnn(CC(=O)Nc2cc(Cl)ccc2C)c1C(=O)OCC	i	>57
O=S(=O)(Cc1ccccc1)N1CCn2c(nc3ccccc32)C1	i	.
OCCN=C(c1ccccc1)C12CN3CN(CN(C3)C1)C2	.	>26

Some of these compounds in order of length of the SMILES, falling:
compound	YjeE inh	Bst PK mod
O=C(NCCc1ccc(Cl)cc1)C1CCN(C(=O)c2sccc2-n2cccc2)CC1	i	>57
CC(C)(C)n1ncc2c(=O)n(CC(=O)OCc3ccccc3)cnc21	i	0.54*
CC1=C2C(=O)OC(c3ccoc3)C2(C)CCC1 (centres undefined)	i	>57

The list continues.
compound	YjeE inh	Bst PK mod
CCOC(=O)C(C)n1cnc2c(nnn2Cc2ccc(Cl)cc2)c1=O (centres undefined)	i	>57
COc1ccc(CCNS(=O)(=O)c2ccc3c(c2)OCCO3)cc1	i	>57
Cc1cc(C)n(C(=O)C23CC4CC(CC(C4)C2)C3)n1	i	>57
CCOc1ccc(C2CC(c3cccc(C)c3)n3nc(N)nc3N2)cc1 (centres undefined)	i	.
CC(=O)N(C(C)=O)c1c(N2CCOCC2)c2ccccc2oc1=O	i	>57
Cc1ccc(S(=O)(=O)Nc2nc(C)cc(NCCN)n2)cc1	i	.
COc1ccccc1C(=O)NCC(=O)n1nc(C)cc1C	.	>26
O=C(CSc1ncnc2c1oc1ccccc12)N1CCN(c2ccccc2)CC1	i	>57
CC(=O)OC1CC2(C)C(=O)CCC2C2CCc3cc(O)ccc3C12 (centres undefined)	i	>57
CCCCOc1ccc(C(=O)NCc2ccccn2)cc1	i	>57
COc1ccc(OC)c(C2CC(=O)N3CN(c4ccccc4)CSC3=C2C#N)c1 (centres undefined)	i	.
CCN(CC)CCCNC(=O)c1cn(CCOC)c(=O)c2c1c1ccccc1n2C	i	>57
COc1ccc(NC(=O)c2ccc(CN3CCN(c4ccccc4)CC3)cc2)cc1OC	i	.
COC(=O)C1=C(C)N(C)C(C)=C(C(=O)OC)C1c1ccsc1	i	.
O=c1c2c3nc4ccccc4nc3n(-c3cccc(F)c3)c2ncn1Cc1ccc2c(c1)OCO2	i	>57
CCN(CCCNC(=O)CN(C)S(=O)(=O)c1cccc2nsnc12)c1cccc(C)c1	i	>57
CCN(C(=O)c1cn(CC)c(=O)c2cc(OC)c(OC)cc12)c1ccccc1C	i	>57
O=C(Nc1nccs1)c1cccc(NC(=O)C2CC2)c1	i	.
N#C/C(=C\c1ccc(O)c(O)c1)C(=O)NCc1ccccc1	i	.
COc1ccc(-c2nc3cnc(N4CCNCC4)nc3n(Cc3ccc(F)cc3)c2=O)cc1	i	.
C/C(N)=C(/C#N)C(=O)CSc1nnc(-c2ccc(OC(F)F)cc2)o1	i	>57
CCNc1ccc(C(=O)OCC)cc1NC(=O)c1cc(S(=O)(=O)N2CCOCC2)ccc1C	i	>57
CCN1C(=O)C(O)(CC(=O)c2cc(C)ccc2C)c2ccccc21 (centres undefined)	i	?
O=C(c1ccncc1)N(Cc1ccco1)Cc1cc2ccccc2[nH]c1=O	i	>57
COc1ccc(NS(=O)(=O)c2cc(-c3nnnn3C)ccc2OC)cc1	i	.

Three entries picked at random from those above:
compound	YjeE inh	Bst PK mod
N#Cc1ccc(-c2ccco2)nc1SCc1ccccc1	i	>57
O=C(NCc1ccccn1)c1cc2ccccn2n1	i	.
O=C(c1ccco1)N1CCCC(c2nc(-c3ccc(S(=O)(=O)NCc4ccccc4)cc3)no2)C1 (centres undefined)	i	>57

(next part)
compound	YjeE inh	Bst PK mod
Cc1ccc(NC(=O)Cn2cccc2)cc1C	i	>57
O=C(CSc1nnc2ccccn12)NC(=O)NC1CCCCC1	i	>57
Nc1ncnc2c1nc(Br)n2[C@@H]1O[C@H]2COP(=O)(O)O[C@@H]2[C@H]1O	i	.
C=CCn1c2ccccc2c2nnc(SCCCn3c(=O)[nH]c4ccccc43)nc21	i	.
CC(C)(C)n1ncc2c(=O)n(CC(=O)NCc3ccccc3)cnc21	i	.
O=C(Nc1ccc2c(c1)OCO2)c1ccc(CN2CCOCC2)cc1	i	.
O=C(CN1CCOCCOCCN(CC(=O)Nc2ccccc2)CCOCC1)Nc1ccccc1	i	>57
O=C(NCCc1ccccc1)C1CCN(c2nc3ccccc3o2)CC1	i	>57
CCC(Sc1nc(C)cc(=O)[nH]1)C(=O)Nc1ccc(Cl)cn1 (centres undefined)	i	.
COC(=O)C(C)NS(=O)(=O)c1ccc(NC(C)=O)cc1 (centres undefined)	i	>57
Cc1nc(NC(=O)c2ccccc2)sc1-c1csc(N)n1	i	i
Nc1ncnc2c1ncn2[C@H]1O[C@@H](C(=O)OCCO)[C@@H](O)[C@H]1O	i	.
COc1ccccc1CNc1ccnc(-c2ccoc2)n1	i	.
Cc1nc2c3c4c(sc3n3c(SCC(=O)NCc5ccco5)nnc3n2n1)COC(C)(C)C4	i	>57
O=C(COc1ccccc1)Nc1nc2ccccc2[nH]1	i	.
COC(=O)c1coc(-c2ccc(C)cc2)c1C(=O)OC	i	.
CC(C)(C)C1CCC(=O)C(C2(O)C(=O)Nc3ccccc32)C1 (centres undefined)	i	>57
CN(Cc1ccco1)c1ncnc2ccc(-c3cccc(C#N)c3)cc12	i	.
CCOC(=O)C1=C(C)NC(=O)NC1c1ccc(OC(=O)c2ccco2)c(OC)c1 (centres undefined)	i	.
CC(=O)c1cccc(NC(=O)c2ccc(NS(=O)(=O)c3c(C)noc3C)cc2)c1	i	>57
CCN(CC)C(=O)COc1ccc(CC(=O)O)cc1OC	i	.
CCOC(=O)c1cc2occc2n1CC(=O)N1CCOCC1	i	>57
CCOc1cccc(C2C(C(=O)c3ccc(C)o3)=C(O)C(=O)N2Cc2ccncc2)c1 (centres undefined)	i	>57
COc1ccccc1Oc1coc2cc(OC(=O)N3CCOCC3)ccc2c1=O	i	>57

Bst PK mod: entries above that show a hit.
compound	YjeE inh	Bst PK mod
CC(C)(C)n1ncc2c(=O)n(CC(=O)OCc3ccccc3)cnc21	i	0.54*

High-throughput results as filed in PubChem.

The list is partial; the hit share may differ from the screen's.
